Compound activity as filed in PubChem BioAssay.
ClpP mod – qHTS Assay for Activators of ClpP. ATP-dependent Clp protease proteolytic subunit (Bacillus subtilis (strain 168)), P80244. purified B. subtilis ClpP, FRET peptide cleavage, 20 min. Potency, µM (series often up to 57.5 µM), inactives show top-dose activity change, negative = active. 1.9% of 340,000 active; active = well fitted falling curve with a large enough effect; inconclusive = small, poorly fitted or top-dose-only effect; inactive = no such curve, though single readings can be large or run the other way; also: potency is read from the fitted curve at half-maximal effect; the source files actives as falling curves though it sought activators and does not explain the sign; nearly all actives have a fitted effect of over 65% in size; many hits overshoot -100%
Target sequence (P80244 whole entry, looked up): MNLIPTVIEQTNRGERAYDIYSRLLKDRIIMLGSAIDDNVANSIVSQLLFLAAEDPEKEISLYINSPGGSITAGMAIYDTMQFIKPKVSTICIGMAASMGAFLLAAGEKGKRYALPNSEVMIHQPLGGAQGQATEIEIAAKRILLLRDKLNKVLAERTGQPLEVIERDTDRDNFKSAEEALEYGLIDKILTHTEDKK
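ClpP 10 microg/mL final, pH 8 Tris/KCl buffer with BSA, glycerol, Tween-20; compound pinned in; FRET-FV substrate; RT 20 min; Ex320/Em430; ΔFRET vs ADEP 5.8 microM, DMSO, no enzyme.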
Menin-MLL FL inh – menin-MLL binding inhibition, fluorescein peptide; FP activity change, % at 61.4 µM; Fluorescence polarization, fluorescein-MLL peptide displacement from menin; 290,000 tested, under 10 active; inconclusive = falling polarisation curve, or a change in total fluorescence; inactive = total fluorescence flat and polarisation flat or rising; no compound was filed as active; the % refers to the polarisation; negative = inhibition;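 also: % of control where 0% means no effect; inhibitors lower the polarisation; unlabelled MLL peptide was the positive control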
D2 potentiator – potentiates the human D2 dopamine receptor allosterically | P14416 | DiscoveRx D2 beta-arrestin cells, luminescence, 90 min; 100% = 57 uM dopamine signal | potentiation, % (no concentration beside the values) | 0.23% of 360,000 active; active = potentiation of 50% or more; inconclusive = 30% to 50%; inactive = 30% or less;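 also: compound concentration not given in the record; tested on top of an EC20 dose of dopamine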
Target sequence (P14416 whole entry, looked up): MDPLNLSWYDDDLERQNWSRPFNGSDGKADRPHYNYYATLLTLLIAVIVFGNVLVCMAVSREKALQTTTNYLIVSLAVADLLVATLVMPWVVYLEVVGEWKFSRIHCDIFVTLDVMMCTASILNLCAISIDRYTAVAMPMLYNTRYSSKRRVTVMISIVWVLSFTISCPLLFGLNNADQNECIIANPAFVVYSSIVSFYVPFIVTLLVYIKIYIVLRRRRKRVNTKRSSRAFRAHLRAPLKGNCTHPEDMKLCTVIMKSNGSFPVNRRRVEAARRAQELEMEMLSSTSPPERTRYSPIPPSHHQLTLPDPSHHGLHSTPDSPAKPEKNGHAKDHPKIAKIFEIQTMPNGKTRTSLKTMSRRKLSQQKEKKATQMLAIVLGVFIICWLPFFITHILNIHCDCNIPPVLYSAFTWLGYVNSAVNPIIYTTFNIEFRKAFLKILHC
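D2 cells co-treated with compound plus 50 nM dopamine (EC20) for 90 min at 37 deg C to detect potentiation. Beta-arrestin recruitment was read as enzyme-fragment luminescence after 1 h at ambient temperature. Full response was set by 57 uM dopamine.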
gsp antag – antagonists of gsp mutant (McCune-Albright syndrome); gsp-mutant cells, cAMP HTRF, 30 min; control for the full effect not named in the record; Potency, µM (series often up to 76.9 µM), without a hit: at the top dose activity change, negative = inhibition, hits mostly inhibitors; 0.4% of 340,000 active; active = falling curve of any shape with a large fitted effect; inconclusive = falling curve, mostly with a smaller effect; inactive = flat or rising curve; cell line not stated here;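 also: intracellular cAMP measured with PDE inhibitor Ro 20-1724 present during compound exposure; potency is read from the fitted curve at half-maximal effect; % is scaled to controls: 0 for no effect and ±100 for the full control effect; nearly all actives have a fitted effect of over 65% in size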
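Measurement of cellular cAMP by homogeneous time-resolved fluorescence following a 30 min compound exposure at 37C. The PDE inhibitor […] was present throughout; the assay buffer was DPBS with 0.05% BSA and 0.005% Tween 20.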
TRPV1 PAM – potentiators of human vanilloid receptor 1 (TRPV1); Q8NER1; TRPV1-expressing cells, Fluo-8 calcium influx, capsaicin EC20 potentiation; host cell line not named in the record; control for the full effect not named in the record; potentiation, % at 8.33 µM; 0.02% of 320,000 active; active means potentiation above 80%; inconclusive means 30% to 80%; inactive means below 30%; also: 0% is about no effect
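TRPV1-expressing cells were cultured overnight at 35.5C and loaded with Fluo-8 calcium dye for 40 to 90 min at room temperature. After a 10 s baseline, compound was added and calcium influx was read kinetically for 3 min (ex 480/em 520 nm).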
gsp ag – agonists of gsp mutant (McCune-Albright syndrome); 0.13% of 340,000 active; gsp mutant cells, cAMP HTRF, 30 min; control for the full effect not named in the record; Potency, µM (series often up to 76.9 µM), for the others: at the highest dose activation (cAMP increase), actives largely listed as activators; active = well fitted activation curve with a large enough effect; inconclusive = small, poorly fitted or top-dose-only effect, or another doubt; inactive = no such curve, though single readings can be large or run the other way; cell line not stated here;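 also: phosphodiesterase inhibitor Ro 20-1724 added with compounds to block cAMP breakdown; potency is read from the fitted curve at half-maximal effect; nearly all actives have a fitted effect of over 60% in size; about a fifth of the inactives were tested at one dose only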
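Cells in DMEM/10% FBS with G418 were pretreated with compounds in DMSO plus […] (300 uM stock) for 30 min at 37C. cAMP was measured by HTRF (cAMP-d2 plus anti-cAMP antibody-K) after 30 min at room temperature.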
Sfp inh – inhibitors of Bacillus subtilis Sfp phosphopantetheinyl transferase; Q9F4F7; Biochemical Sfp PPTase activity, qHTS; Potency, µM, for inactives: max response, negative = inhibition, actives largely listed as inhibitors; 3.5% of 310,000 active; AID 1490; active = well fitted inhibition curve with a large enough effect; inconclusive = small, poorly fitted or top-dose-only effect, or another doubt; inactive = no such curve, though single readings can be large or run the other way;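 also: the enzyme is Sfp with the accession as filed and its product quenches rhodamine fluorescence; potency is read from the fitted curve at half-maximal effect; 0% = enzyme reaction without inhibitor and -100% = no enzyme wells; top concentration of the series not given in the record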
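Fluorescence-quenching assay: 15 nM Sfp-PPTase preincubated 15 min at room temperature with compound, then 5 uM rhodamine-CoA and 12.5 uM BHQ-2-labelled YbbR peptide added. Fluorescence (ex 525/em 598 nm) read at start and after 30 min; difference gives rate.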
* = called active by the depositor; ? = inconclusive; · = not tested or not shown; [ ] = remark or other dose. Hits appear at their usual frequency; 5.1% or so of the library scored in one or more.

SMILES	ClpP mod	Menin-MLL FL inh	D2 potentiator	gsp antag	TRPV1 PAM	gsp ag	Sfp inh
O=c1c2[nH]c3ccc(Cl)cc3c2ncn1Cc1ccccn1	-15%	-6.0	-12	?	-5	?	-5%
Nc1nc(C2C(=O)CCCC2=O)cs1	-1.4%	1.5	4	9%	6	?	56µM*
Cc1ccc(-n2nnnc2SCC(=O)c2ccc3c(c2)NC(=O)CO3)c(C)c1	-1.3%	-1.6	0	-12%	9	20%	-19%
O=C(c1ccco1)N1CCN(C(=S)NC2CC3CCC2C3)CC1 (stereo unspecified)	0.7%	2.9	0	-4%	11	-12%	9%
Cc1ccc(S(=O)(=O)N(Cc2n[nH]c(=S)n2-c2ccccc2)c2cccc(Cl)c2)cc1	·	-3.5	-4	-14%	9	-6%	-3%
Cc1ccc(N)c([N+](=O)[O-])c1	-0.3%	·	-8	3%	-4	·	·
COCCn1c(-c2ccccc2)nc2oc3ccccc3c(=O)c2c1=O	-0.9%	0.0	-7	-10%	19	14%	0%
O=C(N1CCN(Cc2ccc3c(c2)OCO3)CC1)C(Cl)(Cl)Cl	-2.9%	2.8	2	-5%	-14	6%[15.4 µM]	20%
Cc1ccc(/C(N)=N/OC(=O)COc2cccc3ccccc23)cc1	-4.3%	·	-3	·	·	-18%	·
COc1ccc(Cl)cc1NC(=O)C/C(C)=N/NC(=O)c1ccccc1Cl	0.4%	1.8	-1	-26%	-6	8%	18%
Cc1ccc2nc(N3CC(C)OC(C)C3)nc(-c3ccccc3)c2c1 (stereo unspecified)	-11%	-4.8	-3	-6%	-2	-1%	1%
O=C(Nc1nc2cc3c(cc2s1)OCCO3)c1ccc([N+](=O)[O-])o1	1.1%	·	7	?	-7	-5%	-20%
Cc1ccc(OCC(=O)N2CCc3ccccc3C2)c(Br)c1	0.2%	2.0	-3	-13%	-2	0%	-6%
Cc1cc(C)n2nc(SCC(=O)N3CCN(c4ccc(F)cc4)CC3)nc2n1	1.6%	·	0	4%	?	?	·
O=C(COC(=O)C(Cc1ccccc1)NC(=O)c1ccco1)NC1CC1 (stereo unspecified)	-0.8%	2.9	-3	-2%	-1	-39%[inhibitor]	14%
CCOc1ccccc1NC(=O)c1cnccn1	-1.0%	0.0	-3	-4%	-6	-22%	14%
CCc1cccc(NS(=O)(=O)c2ccc3c(c2)NC(=O)CO3)c1	-4.7%	1.3	-10	4%	6	-1%	15%
CCOc1cnc(-c2ccccc2F)o1	·	0.7	4	·	-2	4%[15.4 µM]	18%
CCOC(=O)c1oc2ccc(Br)cc2c1COC(=O)C1=COCCO1	·	·	-67	-16%	16	-17%[15.4 µM]	·
O=C(Cc1nn[nH]n1)NCc1ccccc1Cl	-5.4%	0.1	-6	-2%[15.4 µM]	-19	-2%	10%
O=C(Nc1cccc(Cl)c1)Nc1ccc2c(c1)C(=O)OC2	0.4%	2.3	6	7%	?	7%	-5%
COCC(=O)Nc1ccc(S(=O)(=O)NCC2CCCO2)cc1 (stereo unspecified)	1.0%	-5.1	1	0%	-10	13%[15.4 µM]	11%
COc1ccc(NC(=O)CC2C(=O)N(c3cccc(OC)c3)C(=O)N2Cc2ccco2)cc1 (stereo unspecified)	-1.2%	-0.3	-1	-1%	-7	-16%	8%
O=C(NCc1ccncc1)c1ccc(Cl)c(S(=O)(=O)N2CCOCC2)c1	0.7%	2.4	7	0%	-4	-7%	11%
COc1ccc(C(=O)NC(CC(=O)O)c2cc([N+](=O)[O-])ccc2Cl)cc1 (stereo unspecified)	·	4.1	-2	5%	-20	-1%[15.4 µM]	18%
O=C(COC(=O)CC(NC(=O)c1ccccc1Cl)c1ccccc1)Nc1cccc(F)c1 (stereo unspecified)	-0.3%	1.8	0	-29%	-2	3%	4%
O=C(CCNC(=O)N1CC(=O)Nc2ccccc21)NCc1ccc(Cl)cc1	2.4%	·	-27	·	·	-4%	·
COc1cc(OC)c(/C=N/NC(=O)c2ccc([N+](=O)[O-])cc2)cc1Br	1.9%	1.5	-12	12%	-6	-12%	18%
Cc1c(C(=O)O)cccc1-c1ccc(/C=N/n2cnnc2)o1	?	12	-15	1%	4	-35%[inhibitor]	6%
CCOc1ccccc1NC(=O)C(CC)Sc1nc2ccsc2c(=O)n1CCC(=O)O (stereo unspecified)	-0.1%	·	-4	-10%	-3	?	8%

Fetched one by one from the list above, five records:
SMILES	ClpP mod	Menin-MLL FL inh	D2 potentiator	gsp antag	TRPV1 PAM	gsp ag	Sfp inh
CCOC(=O)c1oc2ccc(Br)cc2c1COC(=O)C1=COCCO1	·	·	-67	-16%	16	-17%[15.4 µM]	·
CCc1cccc(NS(=O)(=O)c2ccc3c(c2)NC(=O)CO3)c1	-4.7%	1.3	-10	4%	6	-1%	15%
O=C(COC(=O)CC(NC(=O)c1ccccc1Cl)c1ccccc1)Nc1cccc(F)c1 (stereo unspecified)	-0.3%	1.8	0	-29%	-2	3%	4%
COc1cc(OC)c(/C=N/NC(=O)c2ccc([N+](=O)[O-])cc2)cc1Br	1.9%	1.5	-12	12%	-6	-12%	18%
CCOc1ccccc1NC(=O)C(CC)Sc1nc2ccsc2c(=O)n1CCC(=O)O (stereo unspecified)	-0.1%	·	-4	-10%	-3	?	8%

An excerpt from above, reduced to gsp antag:
structure	gsp antag
O=C(NCc1ccncc1)c1ccc(Cl)c(S(=O)(=O)N2CCOCC2)c1	0%
COc1ccc(C(=O)NC(CC(=O)O)c2cc([N+](=O)[O-])ccc2Cl)cc1 (stereo unspecified)	5%

The listing continues:
SMILES	ClpP mod	Menin-MLL FL inh	D2 potentiator	gsp antag	TRPV1 PAM	gsp ag	Sfp inh
CNC(=O)Cn1nc(-c2ccc(C)c(S(=O)(=O)N(C)C)c2)c2ccccc2c1=O	-1.9%	-0.9	-7	-9%	-24	-1%	13%
COc1ccc2cc(C(N)=O)/c(=N/NC(=O)c3ccco3)oc2c1	-8.0%	3.1	-6	-23%	2	13%	-6%
Cc1ccc(CNC(=O)C(C(=O)NCc2ccc(C)o2)c2ncc(C(F)(F)F)cc2Cl)o1	·	-1.2	-4	8%	-5	22%	-22%
COC(=O)N/N=C(\C)c1ccccc1Br	-3.4%	3.0	4	9%	-1	-29%	-3%
COc1ccc(N2CC(C(=O)Nc3ccc(S(=O)(=O)N4CCOCC4)cc3)CC2=O)cc1 (stereo unspecified)	·	1.0	7	-1%	3	-5%	3%
CC1NC(=O)NC1CCCCC(=O)O (stereo unspecified)	0.6%	0.1	-6	0%	6	-3%	11%
Cc1noc(C)c1C(=O)OC(C)C(=O)NC(C)c1ccc(Cl)cc1Cl (stereo unspecified)	5.7%	·	-5	-9%	·	-36%[inhibitor]	·
O=C(c1ccc(C(F)(F)F)cc1)C1CCCN(Cc2cccn2-c2ncccn2)C1 (stereo unspecified)	1.2%	-0.4	-16	-8%	14	19%	8%
O=C(CCCOc1ccc(Cl)cc1Cl)N/N=C/c1ccc(Cl)cc1	9.1%	3.9	-7	-18%	-3	-9%	-1%
CCCS(=O)(=O)c1nc(S(=O)(=O)c2ccc(C)cc2)c(N2CCC3(CC2)OCCO3)s1	-2.1%	·	-5	-14%	-1	17%	0%
CCOc1[nH]n(-c2ccccc2)c(=O)c1C=NCC(=O)OC	0.6%	3.9	-2	-7%	-15	-2%	10%
CC1CCC(C(=O)NC(C(=O)N2CCN(c3ccccn3)CC2)C(C)C)CC1 (stereo unspecified)	-12%	5.1	-8	9%	1	-5%	-4%
O=C(COC(=O)COc1ccc2ccccc2c1)NC1CCCc2ccccc21 (stereo unspecified)	0.2%	·	-8	5%	8	0%[15.4 µM]	9%
Clc1cccc(CSc2nccn2-c2ccccc2)c1	-0.9%	-1.7	2	0%	-14	9%	-16%
CC1CN(c2ncnc3c2cnn3-c2ccc(Cl)cc2)CC(C)O1 (stereo unspecified)	6.6%	-1.0	0	10%	-2	-20%	-7%
COc1ccccc1CNCCS(=O)(=O)NCc1ccccc1	1.4%	·	-22	6%	·	·	·
Cc1ccc(Nc2nc(CSc3nnnn3-c3ccccc3)cs2)cc1	0.4%	-0.9	-6	?	15	-15%	-9%
O=C(O)C1C2C=CC(C2)C1C(=O)Nc1ccc2c(c1)OCCO2 (stereo unspecified)	-0.3%	-1.8	20	11%	-16	-20%	0%
CCNC(=O)CSc1nc2sccc2c(=O)n1-c1ccccc1	0.0%	-0.6	-3	-7%	6	24%	5%
CCOc1ccc(N(CC(=O)Nc2c(C)cccc2C)S(=O)(=O)c2c(C)[nH]c(=O)[nH]c2=O)cc1	·	-0.6	-3	1%	-2	-2%[15.4 µM]	19%
Cc1c(C)n(Cc2ccc(F)cc2)c2ccc(C(=O)NCCN3CCOCC3)cc12	-28%	8.8	-11	4%	-21	-1%	-11%
COc1ccc(CNC(=O)[C@H](C)NC(=O)C2CC(=O)N(c3ccc4c(c3)OCO4)C2)cc1 (stereo partly specified)	1.1%	0.6	-5	13%	-3	?	14%
Cc1cc(CNC(=O)C2(C(F)(F)F)C/C(=C\CCO)CCCO2)nn1C (stereo unspecified)	2.1%	0.1	-25	-1%	·	·	3%
Cc1ccc(C(=O)Nc2ccccc2C(=O)N2CCCC(C)C2)cc1 (stereo unspecified)	-2.2%	-2.6	-8	6%	3	-29%	4%
CCOc1ccc(S(=O)(=O)N2CCOCC2)cc1NC(=O)CSCC(=O)Nc1cccc(C)c1	-0.7%	·	-9	-10%	?	2%[15.4 µM]	23%
CN(NC(=O)c1ccccc1)c1nc2ccccc2nc1C(F)(F)F	-1.9%	4.1	-6	8%	11	-31%[inhibitor]	5%
